Screening data: PubChem BioAssay, several laboratories
BJeLR lethal = kills HRASV12-expressing BJeLR cells. BJeLR (HRASV12) viability, CellTiter-Glo ATP luminescence, 48 h; reference of the scale not given here. inhibition, % (concentration not given with the values). actives 0.17% (n = 300,000);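 active means replicate mean above 50%; inconclusive means above 50% but judged a plate artefact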;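 further: 50 nL library stock added to about 25 µL; numbers are from one replicate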
Bead autofluor = compound fluorescence in toxin protease inhibitor counterscreen. compound autofluorescence counterscreen, microsphere flow cytometry; hits give high values. fluorescence intensity (test concentration not listed). actives 3.1% (n = 360,000);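 active means at least 3 SD above the mean of all compounds, about 16000 in these data; inconclusive means too few beads counted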;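 further: 100 nL of 1 mM stock went into each well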
Mtb hypoxia rep = inhibitors of hypoxia-regulated fluorescent reporter in Mycobacterium tuberculosis | M. tuberculosis hypoxia-regulated fluorescent reporter, fluorescence | actives 0.1% (n = 300,000) | fluorescence inhibition, % (test concentration not listed);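 active means 35 to 45% if threefold the growth effect, above 45% if 1.5-fold the growth effect; inactive means the rest, general growth blockers included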;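 further: wells of about 50 µL received 100 nL stock; 0% = vehicle wells and 100% = reference inhibitor wells; whole bacteria with a GFP reporter of the hypoxia response; strong numbers were not always called active; many hits fall short of the cut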
PrP 5UTR inh = inhibition of PrP 5' UTR reporter expression. cell-based PrP 5' UTR mRNA reporter, plate reader. inhibition, % (concentration not given with the values). actives 0.35% (n = 340,000). AID 488862;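 active means every replicate at 50% or more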;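 further: 0 = median of the neutral control wells; tested in H4 reporter cells; numbers are from one replicate; inactives centre near -14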
Sa ugtP lethal = compounds lethal to S. aureus RN4220 ugtP deletion mutant | growth inhibition, % (concentration not given with the values) | actives 0.54% (n = 330,000) | OD600 growth, 16 h; some inactives read as strong as hits;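 active means z-score under -3 and OD600 up to 0.15 on both plates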;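 further: plate controls were untreated wells for no effect and antibiotic for full effect; wells of about 80 µL received 100 nL stock; the first replicate is given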
Sa RN4220 lethal = S. aureus RN4220 growth inhibition; OD600, 16 h; inhibition, % (test concentration not listed); actives 0.33% (n = 330,000);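 active means z-score of -3 or lower and OD600 up to 0.18 on both plates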;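 further: plate controls were untreated cells for no effect and reference antibiotic for full effect; stock transfer was 100 nL into about 80 µL; one replicate is shown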
Mtb hypoxia rep growth = recorded beside Mtb hypoxia rep, whose call it bears; growth inhibition, %; measured here: M. tuberculosis growth (absorbance);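 0% = vehicle and 100% = reference antibiotic; read after six days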
* = called active by the depositor; ? = inconclusive; . = not tested or not shown.

SMILES	BJeLR lethal	Bead autofluor	Mtb hypoxia rep	Mtb hypoxia rep growth	PrP 5UTR inh	Sa ugtP lethal	Sa RN4220 lethal
COc1ccc(C(=O)Nc2ccncc2)cc1[N+](=O)[O-]	11	3988	-5	3	-17	-1	-1.1
NC(=O)CSc1cn(CCNC(=O)c2cccs2)c2ccccc12	7	5552	5	10	-36	-3	-10
Cc1cc(C)nc(SCC(=O)N(C)CC(=O)Nc2ccccc2Br)n1	-9	?	-4	-2	-12	-2	-1.8
C/C=C/c1ccc(OCCSc2nc(C)cc(=O)[nH]2)c(OC)c1	4	17582*	1	-1	0	3	23
C=C(C)CNC(=S)Nc1nc2c(cc1C(=O)OCC)CCCC2	-1	1985	-10	1	-61	13	3.8
O=c1c2ccccc2ncn1Cc1ccc2c(c1)OCO2	10	4086	13	7	-21	10	4.8
Cc1ccc(C)c(N2CCN(C(=O)CNS(=O)(=O)c3cccs3)CC2)c1	-1	12920	-1	-9	-28	2	-1.1
COc1ccccc1NC(=O)Nc1ccc(Cc2ccncc2)cc1	0	4108	2	-4	-5	0	2.9
CCCCN(C)CCCNC(=O)CS(=O)Cc1nc(-c2ccc(OC)c(OC)c2)oc1C (stereo not drawn)	0	5854	8	9	-17	3	3.1
C=CCNC(=O)c1ccccc1NC(=O)c1ccc(Cl)c(S(=O)(=O)Nc2cccc(C)c2C)c1	5	2022	-10	-4	-5	32	-6.9
COc1cc(C(=O)Nc2ccc(O)cc2C(=O)O)ccc1OC(C)=O	8	7771	3	7	-19	7	1.4
CCN(c1ccccc1)S(=O)(=O)c1ccc(NN)nc1	.	2645	2	1	-10	0	7.7
CC(=O)N1CCN(C(=O)CCC(=O)O)CC1	3	3391	.	.	1	.	.
CCOc1ccccc1NC(=O)CCS(=O)(=O)c1ccc(Br)cc1	7	3956	17	7	-15	7	5.6
CN1CCN(S(=O)(=O)Cc2ccccc2Cl)CC1	-3	3774	5	-7	-18	10	2.7

Copied from the list:
Reading of `CC(=O)N1CCN(C(=O)CCC(=O)O)CC1` under Bead autofluor: 3391
Reading of `O=c1c2ccccc2ncn1Cc1ccc2c(c1)OCO2` under Bead autofluor: 4086
Reading of `CCN(c1ccccc1)S(=O)(=O)c1ccc(NN)nc1` under PrP 5UTR inh: -10
Reading of `COc1ccc(C(=O)Nc2ccncc2)cc1[N+](=O)[O-]` under BJeLR lethal: 11
Reading of `COc1ccccc1NC(=O)Nc1ccc(Cc2ccncc2)cc1` under PrP 5UTR inh: -5
Reading of `C/C=C/c1ccc(OCCSc2nc(C)cc(=O)[nH]2)c(OC)c1` under Mtb hypoxia rep: 1
Reading of `CCOc1ccccc1NC(=O)CCS(=O)(=O)c1ccc(Br)cc1` under BJeLR lethal: 7

Continued:
SMILES	BJeLR lethal	Bead autofluor	Mtb hypoxia rep	Mtb hypoxia rep growth	PrP 5UTR inh	Sa ugtP lethal	Sa RN4220 lethal
O=C(NC1CC1)c1sc2ccccc2c1Cl	-5	4879	9	1	-29	-6	7.1
C/C(=N\NC(=O)c1nnn(-c2nonc2N)c1-c1cccs1)c1ccc(C)cc1	3	5117	.	.	-13	.	.
O=C(Nc1ccsc1C(=O)N1CCCCCC1)c1ccccc1	3	16715*	4	2	3	17	10
COc1cc(OC)cc(-c2nc3nc(C)c(CCC(=O)O)c(C)n3n2)c1	-2	4247	.	.	-9	0	0.2
CC(C)C(OC(=O)CCCC(=O)Nc1nccs1)C(=O)NC1CCCCC1 (stereo not drawn)	0	4313	11	13	-9	7	2.8
CC(C)(C)OC(=O)C1=C(CO)CS[C@@H]2[C@H](NC(=O)Cc3ccccc3)C(=O)N12	.	3306	2	5	-11	101*	99*
Clc1cccc(N=C2NN=C(c3ccc4c(c3)OCCO4)CS2)c1	-11	11001	-1	15	.	-19	2.1
O=S(=O)(c1ccc(-c2ccon2)s1)N1CCN(c2ccccn2)CC1	-1	5800	-4	2	-16	8	1.8
O=C(CCS(=O)(=O)c1ccccc1)Nc1nncs1	-13	5218	12	10	-9	13	4.8
CC(=O)Nc1ccc(N2CCCC(C)C2)c([N+](=O)[O-])c1 (stereo not drawn)	1	5157	2	1	-3	15	7.4
C[C@H](CO)N1C[C@H](C)[C@H](CN(C)C(=O)Nc2ccc(F)cc2)Oc2c(NC(=O)c3ccc(-c4nccs4)cc3)cccc2C1=O	.	2906	5	11	-23	-1	-17
c1cncc(Nc2c3ccccc3nc3ccccc23)c1	11	3093	7	0	-6	7	2.6
O=C(COc1ccc(Br)cc1Br)NNC(=O)c1cccs1	7	3259	14	1	-20	-2	9.4
CC(C)N(C)CCOC(=O)c1ccccc1Cl	0	2017	4	4	-30	9	4.7
COc1ccc(CN(Cc2nc3ccccc3c(=O)[nH]2)C(=O)c2ccco2)cc1	-9	3647	-11	-6	-3	1	3.4

Profiles, quoted from the list. Screens in order: BJeLR lethal, Bead autofluor, Mtb hypoxia rep, Mtb hypoxia rep growth, PrP 5UTR inh, Sa ugtP lethal, Sa RN4220 lethal
Listed for O=C(NC1CC1)c1sc2ccccc2c1Cl = -5, 4879, 9, 1, -29, -6, 7.1
Listed for c1cncc(Nc2c3ccccc3nc3ccccc23)c1 = 11, 3093, 7, 0, -6, 7, 2.6
Listed for COc1ccc(CN(Cc2nc3ccccc3c(=O)[nH]2)C(=O)c2ccco2)cc1 = -9, 3647, -11, -6, -3, 1, 3.4

Next part
SMILES	BJeLR lethal	Bead autofluor	Mtb hypoxia rep	Mtb hypoxia rep growth	PrP 5UTR inh	Sa ugtP lethal	Sa RN4220 lethal
O=C(CN1C(=O)C2CCCCC2C1=O)Nc1ccc(OC(F)F)c(Cl)c1 (stereo not drawn)	.	3962	0	9	-54	-7	-6.4
CCC(=O)c1ccc(OCC(O)CN2CCN(C(c3ccccc3)c3ccccc3)CC2)cc1 (stereo not drawn)	-4	8560	4	6	.	-1	2.3
COc1ccc(OCC(=O)N2CCC(n3nccc3NC(=O)C3CC3)CC2)cc1	-1	4265	4	1	-18	14	4.6
O=C(Nc1ccc(N2CCOCC2)cc1)C1CCN(S(=O)(=O)c2ccc3c(c2)OCCO3)CC1	-19	3409	-3	-4	-20	-6	3.6
C=Cn1ccnc1P(=S)(c1nccn1C=C)C1CCCCC1	-3	10271	2	-8	-9	2	2.2
O=C(CSc1ccc(F)cc1)Nc1ccc(Br)cc1	-8	2617	1	-7	-71	-7	-3.7
CCc1ccccc1NC(=O)c1cnc2n(c1=O)CCS2	0	6076	1	6	-28	2	4.5
O=C(CCc1ccccc1)Nc1cc(Cl)ccc1O	3	9445	-8	7	-1	-16	3.2
CCc1ccc(NC(=O)c2n[nH]c(=O)c3ccccc23)cc1	0	6731	1	-7	-108	3	3.1
COc1cc(C=O)ccc1Oc1nnnn1-c1ccc(C(N)=O)cc1	7	16078	0	-2	-13	16	5.7
CCN(CC)C(=O)C1CCCN(c2ccc([N+](=O)[O-])cc2C=NNC(=O)c2cccc(O)c2)C1 (stereo not drawn)	.	.	11	0	.	-7	-16
CCC(C)(C)n1nnnc1C(c1ccccc1)N1CCN(C2CCCC2)CC1 (stereo not drawn)	-15	4358	11	4	-21	2	4.5
O=C(O)CSc1nnc(-c2ccc(Cl)cc2Cl)n1-c1ccccc1	1	3066	.	.	-25	.	.
NC(=O)COC(=O)c1cc(=O)[nH]c2ccc(S(=O)(=O)Nc3ccc(F)cc3)cc12	-8	5324	1	7	-3	6	-0.1
CC(/C=C/c1ccc(N(C)C)cc1)=N\N=C(/N)SC1CC(=O)N(c2ccc(C(=O)O)cc2)C1=O (stereo not drawn)	1	8984	.	.	-36	.	.
Cc1cc(C)cc(NC(=O)CN2CCN(C(=O)c3cccs3)CC2)c1	.	3752	-5	11	-5	-5	-1.0
CCN(CC)CCCN(C)C(=O)Cn1nc(Cc2ccncc2)c2ccccc2c1=O	-8	4407	-2	0	-15	1	-0.3
CCn1c(C)nc2cc(C(=O)NN=Cc3cccc(OC)c3O)ccc21	.	.	23	-4	.	8	6.2
CC1/C(=C\c2ccc(Cl)cc2)C(=O)C2CC1C2(C)C (stereo not drawn)	-1	2696	8	17	47	18	4.2
O=C(Nc1cccc(S(=O)(=O)N2CCCCC2)c1)c1ccc(N2CCCC2=O)cc1	.	5700	4	8	7	-3	-1.5
Cc1cc(C(=O)NNc2ccc(C)c(C)c2)no1	2	4362	6	4	-24	1	2.9
CCOC(=O)c1c(CN2CCN(C)CC2)n(C)c2cc(Br)c(OC)cc12	2	11413	20	19	-49	5	-0.8
CN(Cc1nccn1C)C(=O)CC1C(=O)NCCN1Cc1cccc(Oc2ccccc2)c1 (stereo not drawn)	1	2610	8	0	-15	6	1.4
CN(C)/C=N/c1nccc(-c2cccs2)n1	0	5136	.	.	-20	.	.
O=C(/C=C/c1cccnc1)c1cccc(O)c1	21	4300	-2	16	-16	11	12
Cn1cc(CN2CCN(c3ccccc3)CC2)c2ccccc21	2	21941*	5	7	-24	4	-0.4
O=C(CNC(=O)c1ccc2c(c1)OCO2)N/N=C(Br)/C=C/c1ccccc1	-2	9624	.	.	-4	.	.
CCOC(=O)c1c(C)[nH]c(=S)c(C#N)c1-c1ccccc1	9	2648	6	6	-10	-4	3.2
CC(=O)NS(=O)(=O)c1ccc(NC(=O)c2ccc(S(=O)(=O)N3CCCC3)cc2)cc1	.	4201	8	6	-17	3	5.6
Cc1oc2nc(SCCCC(=O)NCCCO)nc(N)c2c1C	5	4760	.	.	-75	.	.
O=C(O)c1cccc(N2C(=S)N=C(Nc3ccccc3)C23CCCCC3)c1	-4	2396	19	-2	5	0	0.5
CCc1cc(Br)ccc1N1C(=O)C2CC=CCC2C1=O (stereo not drawn)	-3	2486	7	2	-11	-4	-10
CC1CCCN(C(=O)CCNC(=O)c2ccccc2Cl)C1 (stereo not drawn)	-14	5876	20	4	-11	3	0.9
CCN(CC)S(=O)(=O)c1ccc(N2CCOCC2)c(NC(=O)c2ccccc2F)c1	6	4298	7	9	-10	-1	12
Cc1cc(C(=O)N/N=C/c2c(C)[nH]n(-c3ccccc3)c2=O)n[nH]1	4	5608	.	.	-17	.	.
Cc1ccc(S(=O)(=O)N(C)C[C@@H]2Oc3c(NS(C)(=O)=O)cccc3C(=O)N([C@H](C)CO)C[C@@H]2C)cc1	.	3605	1	2	-55	2	2.9
CCn1c(-c2ccc(C)cc2)n[nH]c1=S	7	3220	9	6	-16	9	0.5
O=C(O)CCC(=O)N(Cc1cccnc1)Cc1cccc(F)c1	6	11743	14	9	-24	4	7.9
COc1ccc(CNC(=O)C2CC=CC3CCN(C4CCCCC4)C(=O)C32)cc1 (stereo not drawn)	.	.	10	4	.	6	1.1
Cc1cccc(/C=N/NC(=O)c2cccc([N+](=O)[O-])c2)n1	-10	4225	.	.	-18	.	.
Oc1ccccc1-[n+]1c(-c2ccccc2)cc(-c2ccccc2)cc1-c1ccccc1	10	3798	.	.	-13	.	.
c1ccc(Sc2nc(N3CCCCC3)nc(N3CCCCC3)n2)nc1	-16	19461*	6	20	-3	15	2.7
Cc1nc(C)c(C(=O)O)c(-c2cccs2)c1C(=O)O	8	3125	6	-2	12	9	1.9
O=C(Nc1cccc2cccnc12)c1cccc2ccccc12	3	7690	4	9	-9	11	-3.7
O=C(Cn1c(=O)c2cccn2c2cccnc21)N1CCN(c2ccccc2F)CC1	3	5533	1	3	-22	8	4.6
COc1ccc(OCCCC(=O)Oc2ccc(OC)cc2)cc1	-3	21327*	-3	5	-6	-3	-1.6
COc1ccc(C=CCN2CCCC(CCC(=O)NCc3ccc(F)c(F)c3)C2)cc1 (stereo not drawn)	.	.	-10	2	.	0	-1.4
CN(C(=O)c1ccc2c(c1)C(=O)N(CCC1=CCCCC1)C2=O)C1CCCCC1	-5	5777	17	14	-17	12	4.4
O=C(OCCNc1ncc(C(F)(F)F)cc1Cl)c1ccc(S(=O)(=O)N2CCOCC2)cc1	-6	5228	10	6	-18	6	11
Cc1ccc(-c2csc3nc(CN(C)Cc4ccccc4)[nH]c(=O)c23)cc1	9	5334	3	5	-22	4	-7.6
O=C(Nc1ccc(C(=O)O)cc1)/C(=C\c1ccccc1)NC(=O)c1ccco1	6	3126	8	13	-9	8	6.4
O=C(O)Cn1cnc2c(=S)nc[nH]c21	4	4561	.	.	-14	.	.
COc1ccccc1N1CCN(C(=O)CSc2nnc(C)n2C2CC2)CC1	.	.	7	-4	-20	-2	0.4
CC(=O)Nc1cccc(OCCCOc2ccc([N+](=O)[O-])cc2)c1	0	3523	11	2	-11	10	5.1
CCCc1cc(=O)oc2cc(C)cc(OCC(=O)Nc3ccccn3)c12	0	5779	9	19	-19	10	8.1
CCc1cc(C(=O)c2ccc(OC)cc2)c(NC(=O)CN2CCCC2)s1	-3	5909	5	0	-15	27	7.6
